Bioassay records: PubChem, Johns Hopkins Ion Channel Center
KCNQ2 block: KCNQ2 potassium channel inhibitors, primary screen, cell-based, CHO-K1, FluxOR thallium flux, B-score (AID 2156) | O88943 | 20 min; hits give low values; only compounds with negative scores are shown here; some inactives read as strong as hits | B-score at 10 µM | 1.1% of 310,000 active;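 active = fluorescence ratio B-score at most minus 3 library SDs, with starting brightness B-score within 2 library SDs, cut at about -5.5 in these data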
Target sequence (O88943 whole entry, looked up): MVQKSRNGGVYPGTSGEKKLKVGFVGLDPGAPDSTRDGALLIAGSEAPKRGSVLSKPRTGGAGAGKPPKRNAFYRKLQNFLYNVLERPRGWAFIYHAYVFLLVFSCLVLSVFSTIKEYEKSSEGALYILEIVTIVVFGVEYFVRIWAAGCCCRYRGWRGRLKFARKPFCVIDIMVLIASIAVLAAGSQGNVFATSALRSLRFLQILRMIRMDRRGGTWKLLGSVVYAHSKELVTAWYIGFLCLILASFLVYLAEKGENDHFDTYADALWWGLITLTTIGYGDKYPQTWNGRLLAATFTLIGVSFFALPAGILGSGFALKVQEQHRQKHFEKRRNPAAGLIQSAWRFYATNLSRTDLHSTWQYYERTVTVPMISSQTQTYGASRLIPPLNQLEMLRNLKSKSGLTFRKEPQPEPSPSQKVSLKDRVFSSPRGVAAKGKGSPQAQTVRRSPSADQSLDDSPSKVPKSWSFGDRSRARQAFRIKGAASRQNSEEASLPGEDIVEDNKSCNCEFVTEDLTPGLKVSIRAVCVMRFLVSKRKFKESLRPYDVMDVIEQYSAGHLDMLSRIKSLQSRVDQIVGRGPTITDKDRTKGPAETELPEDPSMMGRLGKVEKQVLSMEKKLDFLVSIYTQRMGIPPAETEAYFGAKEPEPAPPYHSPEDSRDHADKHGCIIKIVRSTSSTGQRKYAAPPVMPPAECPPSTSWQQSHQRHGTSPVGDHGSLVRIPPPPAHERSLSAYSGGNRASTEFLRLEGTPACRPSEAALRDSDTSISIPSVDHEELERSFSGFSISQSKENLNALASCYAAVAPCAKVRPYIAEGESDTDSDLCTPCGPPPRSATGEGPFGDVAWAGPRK
KCNQ2 block baseline: recorded beside KCNQ2 block, whose call it bears; B-score; measured here: initial fluorescence intensity artifact check;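 brightness before thallium and not channel activity; 0 = typical well and far values either way flag optical interference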
Active calls of the source: *; i = inactive.

SMILES	KCNQ2 block	KCNQ2 block baseline
O=C1[C@H]2[C@@H](/C=C/c3ccccc3)N3C(=O)CN(CC4CC4)C(=O)[C@@]3(Cc3ccccc3)[C@H]2C(=O)N1c1ccccc1	i	1.4
CC(C)Oc1ccc(C(=O)N(Cc2ccco2)C2CCS(=O)(=O)C2)cc1 (stereo not drawn)	i	-0.41
O=[N+]([O-])c1cccc(-c2ccc(/C=N/Nc3nc(N4CCCCC4)nc(N4CCCCC4)n3)o2)c1	i	0.67
Cc1ccc(/C=N/N2CCN(C3c4ccccc4-c4ccccc43)CC2)s1	i	-1.3
COc1ccccc1N1CCN(C(=O)c2cc(=O)c3cc(C)cc(C)c3o2)CC1	i	-0.45
O=C(N/N=C/c1cc(Br)cs1)c1c[nH]c2ccccc12	i	1.6
CCOC(=O)C(C)Sc1ccc2nnc(CCNS(=O)(=O)c3ccccc3)n2n1 (stereo not drawn)	i	0.03
O=C(COc1ccccc1)Nc1ccc(CN2CCCCC2)cc1	i	0.48
Cc1cc(C(=O)CSc2nnc(N)s2)c(C)n1CCc1ccc(F)cc1	i	2.4
CCCc1c(O)c2ccccc2[nH]c1=O	i	-0.14
CCN(c1ccc(OCC(=O)OCC(=O)c2c(N)n(C)c(=O)n(C)c2=O)cc1)S(=O)(=O)c1ccccc1	i	-0.75
COCCn1c(SCC(=O)c2ccc(Cl)cc2)nnc1C(C)C	i	-1.7
CCOc1ccc(CNc2ccc(N3CCCC3)cc2)cc1	i	0.28
CC(=O)C1C(=O)CC(c2ccc(Cl)cc2)CC1=O (stereo not drawn)	i	2.2
CCOC(=O)C(Sc1cc(-c2ccccc2)nc2ncnn12)C(C)=O (stereo not drawn)	i	2.1
Cc1nc(N2CCN(c3ccccn3)CC2)c2c(C)c(C(=O)Nc3ccc(F)cc3)sc2n1	i	2.1
CC(C)N(C(=O)COC(=O)[C@H](C)NC(=O)c1ccco1)c1ccccc1	i	0.72
Cc1cc(C)c2nc(SCC(=O)NCCN3C(=O)CSC3=O)cc(C)c2c1	i	-0.09
CC1(CC(=O)N/N=C/c2cc([N+](=O)[O-])c(O)cc2O)OCCO1	i	3.5
O=C(O)c1cccc(N2C(=O)c3ccc4c5c(ccc(c35)C2=O)C(=O)N(c2cccc(C(=O)O)c2)C4=O)c1	i	1.1
CCC[N+](CC#CCO)(CC#Cc1ccccc1)CCC	i	-1.2
O=C(COC(=O)c1ccc(-c2ccccc2)cc1)Nc1ccccc1-c1ccccc1	i	1.2
CC(=O)Cc1nsc(Nc2cccc(C)c2)n1	i	-0.01
CN(Cc1ccc(OC(F)F)cc1)C(=O)c1ccccc1Sc1ccccc1C#N	i	-0.05
COc1cccc(NC(=O)c2c(C)cc(C)cc2CC(C)(C)C(=O)O)c1	i	-1.3
CCCN1CCC(NC(=O)Nc2cc(Cl)ccc2OC)CC1	i	-0.78
NC1=NC(=O)C(Cc2ccc(F)cc2)S1 (stereo not drawn)	i	-0.87
CCCCCOc1ccc2oc(=O)c3c(c2c1)CCCN3C(=O)CN1CCCC(C(=O)OCC)C1 (stereo not drawn)	i	-1
CCN(CC)c1ccc(/C=c2\sc3nc4ccccc4n3c2=O)c(O)c1	i	9.7
CN(CCS(=O)(=O)c1ccc(Cl)cc1)Cc1cccnc1	i	-0.69
CC1=C(C(=O)c2ccccc2)C(c2ccc(O)cc2)NC(=S)N1 (stereo not drawn)	i	0.36
C=CCN1N=C(c2ccc(Cl)s2)CSC1=O	i	-0.93
COc1ccc(CC(=O)Nc2cccc(S(=O)(=O)N3CCCCCC3)c2)cc1OC	i	0.63
O=c1cc(CO)oc(C(Nc2cccc(C(F)(F)F)c2)c2ccccn2)c1O (stereo not drawn)	i	0.11
CCCCNC(=O)c1ccc(NC(=O)C2CCCO2)cc1 (stereo not drawn)	i	0.12
O=C(CCC(=O)N1CCN(Cc2ccccc2)CC1)Nc1nnc(C2CCCCC2)s1	i	1.2
COC(=O)c1ccc(/C=N/N2CCN(Cc3ccc(C)cc3C)CC2)cc1	-7.8*	1.4*
O=C(c1ccoc1)N1CCCC(N2CCN(c3ccc(F)cc3)CC2)C1 (stereo not drawn)	i	1.7
Cc1cc2c3c([nH]c2cc1S(=O)(=O)NCc1ccc(CN2CCCCCC2)o1)CC(C)(C)CC3=O	i	0.31
Cc1ccc(S(=O)(=O)N(CC(=O)Nc2ccccc2)C(=O)N2CCN(C)CC2)cc1	i	0.52
Cc1nn(CC(=O)NCCCc2ccccc2)c(=O)c2cc3occc3n12	i	-0.79
COc1ccc(NC(=O)c2ccc(S(=O)(=O)N3CCOCC3)o2)cc1	i	0.45
O=C1CC(c2nc3ccccc3[nH]2)CN1c1cccc(C(F)(F)F)c1 (stereo not drawn)	i	-0.72
Cc1cc(C)cc(-n2ncc3c2CCCC3NC(=O)c2csnn2)c1 (stereo not drawn)	i	-0.07
CN(C)S(=O)(=O)c1ccc(Cl)c(C(=O)NCC2CCCCC2)c1	i	0.27
COc1ccc(/C=C2\CCc3ccccc3C2=O)cc1CN1CCOCC1	i	-0.68
CCCc1c(O)nc(SCC(=O)O)[nH]c1=O	i	0.61
CCCN(C(=O)c1ccco1)c1nnc(-c2ccccc2C)s1	i	-0.33
Cc1nc2ccccc2n1CC(=O)NN	i	0.06
CCC(C)Oc1cccc(C(=O)Nc2ccccc2N2CCOCC2)c1 (stereo not drawn)	i	0.14
O=C(NC(N1CCOCC1)C(Cl)(Cl)Cl)c1cc([N+](=O)[O-])cc([N+](=O)[O-])c1 (stereo not drawn)	i	1.9
Cc1ccc(S(=O)(=O)NCc2nc(-c3ccccc3)no2)cc1	i	0.72
CCN(CC)CCN(C(=O)/C=C/c1cccs1)c1nc2ccc(C)cc2s1	i	-0.23
Cc1[nH]c2ccccc2c1/C=N/NC(=O)c1cccc(Br)c1	i	1.9
COc1ccc(CNC(=O)c2cc(=O)c3c(C)cc(C)cc3o2)cc1	i	-1.4
COc1ccc(NC2CCCN(C(=O)c3cccs3)C2)cc1 (stereo not drawn)	i	-2.1
CC(C)(C)c1cc(C(F)(F)F)nc(SCCCNC(=O)c2ccco2)n1	i	0.12
CC(Cc1ccccc1)NC(=O)CSc1nc2nc3c(cc2c(=O)n1-c1ccccc1)COC(C)(C)C3 (stereo not drawn)	i	-0.41
CC1(C)CC(=O)C=C(NC2=CC3OC(c4ccccc4)OCC3OC2=O)C1 (stereo not drawn)	i	0.65
COC(=O)c1cn(NC(=O)c2ccc(F)cc2)c(=O)c2ccccc12	i	1.5

Continuation.
SMILES	KCNQ2 block	KCNQ2 block baseline
Cc1c(C(=O)N2CCOCC2)c(S(=O)(=O)Nc2ccc(Br)cc2F)c(C)n1C	i	0.37
Cc1cccc(C(=O)N2CCC(=O)N(C(COCc3ccccc3)Cc3ccccc3)CC2)c1 (stereo not drawn)	i	0.41
Cn1c(=O)c(C(=O)c2ccc(S(C)(=O)=O)c(Cl)c2Cl)c(O)c2ccccc21	i	0.43
CCCn1c(=O)c2ccccc2n2c(SCCOc3ccc(OC)cc3)nnc12	i	0.05
Cc1cc(OCC(=O)N(C)Cc2ccccc2)ccc1Br	i	1.9
C=C(C)Cn1c(CCn2c3ccccc3c3ccccc32)n[nH]c1=S	i	0.7
Cc1ccc(S(=O)(=O)N2CCN(c3ccc(N4CCOCC4)nn3)CC2)cc1[N+](=O)[O-]	i	-0.17
CC12CCC(=O)N1C(C(=O)NCc1ccccc1Cl)CS2 (stereo not drawn)	-5.8*	0.71*
O=C(CSc1nnc(-c2ccccc2)n1-c1ccccc1)N1c2ccccc2Sc2ccccc21	i	0.84
CCN(CC)NC(=O)Nc1ccccc1	i	2.6
CCCSc1nnc(NC(=O)c2sc3nc(-c4cccs4)ccc3c2N)s1	i	-1.2
COc1ccc(CCN(C)C2CCCN(S(C)(=O)=O)C2)cc1OC (stereo not drawn)	i	0.68
CCOc1ccc(C2C3=C(CCCC3=O)Nc3ccc4ncccc4c32)cc1 (stereo not drawn)	i	-1.5
O=C(NCCCN1CCN(Cc2ccccc2)CC1)C1CCN(c2nnc(-n3cccc3)s2)CC1	i	2
Cc1cc2c(cc1S(=O)(=O)N1CCN(c3cccc(C)c3C)CC1)OCCN2C	i	-0.86
CCN1C(=O)/C(=C\N2CCN(C(=O)c3ccco3)CC2)SC1=S	i	-1.1
Cn1c2ccccc2n2c(=O)c(=O)n(CC(=O)N3CCCc4ccccc43)nc12	i	0.69
Cc1cc(C)c2[nH]c(=O)c(CN(Cc3cccs3)C(=S)NCC3CCCO3)cc2c1 (stereo not drawn)	i	-0.92
O=C(Nc1ccc(Br)cc1)c1cc(-c2cccs2)on1	i	0.33
O=S(=O)(Nc1ccc(N2CCCCC2)cc1)c1ccccc1	i	-0.75
CC(C)NS(=O)(=O)c1ccc2c3c(cccc13)CC2	i	2.9
O=C(CCC(=O)N1CCCCCC1)NCc1ccc(F)cc1	i	-0.15
CCN(CC)C(=O)C1CCCN(c2ncnc3c2cnn3-c2ccc(Cl)cc2)C1 (stereo not drawn)	i	-0.13
CCOC(=O)/C(C#N)=C1\Nc2ccccc2N=C1N(CC(C)C)CC(C)C	i	-1.8
O=C(COC(=O)COc1ccccc1)NC1CCCc2ccccc21 (stereo not drawn)	i	-0.25
CSc1c(CC(=O)Nc2ccccc2Cl)n(Cc2ccccc2)c2ccccc12	i	-0.26
N/C(CC(=O)Nc1cccc(C(F)(F)F)c1)=N/O	i	0.79
O=C(NC1CC1)c1nc(Cn2ccc([N+](=O)[O-])n2)no1	i	0.35
O=C(O)CC1S/C(=N\N=C2CCCCCCC2)N(c2ccccc2)C1=O (stereo not drawn)	i	-0.43
CCCCn1c(N)c(N(CCOC)C(=O)CCCc2cccs2)c(=O)[nH]c1=O	i	0.91
CCN(Cc1ccncc1)C(=O)Cc1cccs1	i	0.04
O=C(Nc1nncs1)C1CC(=O)N(C2CCCC2)C1 (stereo not drawn)	i	-0.35
COc1ccccc1NS(=O)(=O)c1cccc(C(=O)N2CCN(C/C=C/c3ccccc3)CC2)c1	i	0.43
CCOC(=O)CN1C(c2ccccc2O)Nc2ccc(Br)cc2C1c1ccccc1 (stereo not drawn)	i	1.2
Cc1c(C)n(CC(O)CNc2ccccc2)c2ccccc12 (stereo not drawn)	i	-0.09
CCOC(=O)c1cnc2ccc(Cl)cc2c1Nc1ccc(S(=O)(=O)Nc2ncccn2)cc1	i	-0.32
O=C(Nc1ccccc1)C1CCN(C(=O)c2ccc(Br)cc2)CC1	i	-1.6
Cn1c(=O)n(Cc2ccccc2F)c2ccccc21	i	-2.7
O=C(COc1ccc2c3c(c(=O)oc2c1)CCC3)N[C@@H](CSCc1ccccc1)C(=O)O	i	1.6
Clc1ccc(OCCCNCc2ccccc2)c2ccccc12	-7.6*	0.88*
COc1ccc(C)cc1S(=O)(=O)N(CC(=O)NCc1ccc(Cl)cc1)Cc1ccccc1	i	-0.02
COc1ccc2c(c1)CCC1C2=NN(/C(C)=C/C(C)=O)C1c1cccc(F)c1 (stereo not drawn)	i	-0.01
Cc1cc(C)c(S(=O)(=O)N(C)CC(=O)NCCN2CCOCC2)c(C)c1	i	-1.2
CC(C)(C)c1ccccc1NC(=O)c1c(O)c2cccc3c2n(c1=O)CC3	i	3.7
CCN(CC)S(=O)(=O)c1cccc(C(=O)Nc2nc3cc4c(cc3s2)OCCO4)c1	i	-1.4
CC(C)(C)c1nc2c(s1)CCc1onc(-c3ccc(Cl)cc3)c1-2	i	-0.29
COc1cc(/C=C/C(=O)OCC(=O)Nc2cc(C(F)(F)F)ccc2N2CCOCC2)ccc1O	i	1.1
CC(C)[C@H](NC(=O)N1CCn2c1nc1ccccc12)C(=O)NCc1ccc2c(c1)OCO2	i	0.33
Cc1c(C(=O)NC(Cc2ccccc2)c2nc3ccccc3[nH]2)cccc1[N+](=O)[O-] (stereo not drawn)	i	0.94
CN(C)/C=C/C(=O)c1ccc(Cl)cc1Cl	i	-0.45
CCOC(=O)N1CCC(NC(=O)c2csc3c2CCCC3)CC1	i	1.6
CN(CCC#N)C(=O)COC(=O)c1cccnc1Nc1ccccc1F	i	0.94
O=C(NCc1ccco1)c1noc2c1CCCCC2	i	2.8
CC(=O)N1CCN(C(=S)c2ccc(Cl)cc2)CC1	i	0.01

Molecules above that have an aryl thioether with sulfur outside any ring (13):
SMILES	KCNQ2 block	KCNQ2 block baseline
CCOC(=O)C(C)Sc1ccc2nnc(CCNS(=O)(=O)c3ccccc3)n2n1 (stereo not drawn)	i	0.03
Cc1cc(C(=O)CSc2nnc(N)s2)c(C)n1CCc1ccc(F)cc1	i	2.4
COCCn1c(SCC(=O)c2ccc(Cl)cc2)nnc1C(C)C	i	-1.7
CCOC(=O)C(Sc1cc(-c2ccccc2)nc2ncnn12)C(C)=O (stereo not drawn)	i	2.1
Cc1cc(C)c2nc(SCC(=O)NCCN3C(=O)CSC3=O)cc(C)c2c1	i	-0.09
CN(Cc1ccc(OC(F)F)cc1)C(=O)c1ccccc1Sc1ccccc1C#N	i	-0.05
CCCc1c(O)nc(SCC(=O)O)[nH]c1=O	i	0.61
CC(C)(C)c1cc(C(F)(F)F)nc(SCCCNC(=O)c2ccco2)n1	i	0.12
CC(Cc1ccccc1)NC(=O)CSc1nc2nc3c(cc2c(=O)n1-c1ccccc1)COC(C)(C)C3 (stereo not drawn)	i	-0.41
CCCn1c(=O)c2ccccc2n2c(SCCOc3ccc(OC)cc3)nnc12	i	0.05
O=C(CSc1nnc(-c2ccccc2)n1-c1ccccc1)N1c2ccccc2Sc2ccccc21	i	0.84
CCCSc1nnc(NC(=O)c2sc3nc(-c4cccs4)ccc3c2N)s1	i	-1.2
CSc1c(CC(=O)Nc2ccccc2Cl)n(Cc2ccccc2)c2ccccc12	i	-0.26

Only part of the results is shown; rates above refer to the full screens.
